# Mtb growth – Confirmatory growth inhibition assay against Mycobacterium tuberculosis H37Rv, potency (AID 1949). most inactive calls were filed without a number and no value below 0 was filed. inhibition, % at 10 µg/mL; hits with a dose series show IC50 in µg/mL. hit rate 1.6% among 100,000;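 active = confirmed in a dose series; inconclusive = about 50% or more but not retested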;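 also: bacteria grown 7 days with compound before Alamar blue readout; 0% = untreated bacteria and 100% = reference antibiotic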
# Numbers without * were called inactive; i = inactive; ? = inconclusive. Some of the compounds tested; the hit share may differ from the screen's.
no.	mol	Mtb growth
1	COc1cc(OC)c(C(=O)N2CCN(c3ccccn3)CC2)cc1OC	i
2	Cc1nc(NC(=O)c2ccco2)ccc1Br	i
3	Cc1cc(S(=O)(=O)Nc2cccc3c([N+](=O)[O-])cccc23)ccc1Cl	i
4	COc1cc(OC)c(NC(=O)CSc2nnc(-c3ccccc3)n2-c2ccccc2)cc1Cl	i
5	Cc1ccc2nc(-c3ccc(NC(=O)CSc4nncn4C)cc3)sc2c1	4%
6	CCOC(=O)c1ccc(NC(CC(=O)c2ccc(Br)cc2)c2ccc(O)cc2)cc1 (stereo not given)	43%
7	COc1ccc(N2CCN(C(=S)Nc3ccc(OC)cc3OC)CC2)cc1	i
8	O=C(Nc1cccc(O)c1)c1cccc(S(=O)(=O)N2CCOCC2)c1	i
9	CCCN1C=C(C(=O)OC)C(c2cccc(C(F)(F)F)c2)C(C(=O)OC)=C1	4%
10	CCCCSCC(=O)n1nc(C)cc1C	0%
11	Cc1cc(C)cc(COc2ccc3c(C)cc(=O)oc3c2C)c1	i
12	Cc1ccccc1NC(=O)CSC1CCCCC1	i
13	CC1CN(S(=O)(=O)c2cccc3nsnc23)CC(C)O1 (stereo not given)	i
14	Cc1ccc(N2C(=O)CC(n3cnc4ccccc43)C2=O)c(C)c1 (stereo not given)	i
15	COc1ccc(CC(=S)NCCc2ccccc2)cc1	7%
16	CSc1ccccc1NC(=O)COc1ccccc1Cl	46%
17	OCCNc1nc2ccccc2nc1-c1ccccc1	i
18	COc1cc(NC(=S)N2CCc3ccccc3C2)cc(OC)c1	3%
19	N#C/C(=C/c1ccc(N2CCOCC2)cc1)c1ccccc1Cl	3%
20	O=[N+]([O-])c1ncn(Cc2ccc(F)cc2Cl)n1	6.9µg/mL*
21	Cc1c(Cl)cccc1NC(=S)N1CCN(c2ncccn2)CC1	i
22	COC(=O)c1ccc(CSc2n[nH]c(-c3ccccc3OC)n2)o1	i
23	O=C(Nc1cccc(Cl)c1)c1ccco1	i
24	COc1ccc(Cl)cc1NC(=O)C(=O)NC(C)C	i
25	O=S(=O)(c1ccc(I)cc1)N1CCN(Cc2ccccc2)CC1	i
26	Cc1ccc(C(=O)N2CCN(c3cccc(C)c3C)CC2)o1	6%
27	CS(=O)(=O)N(CC(=O)Nc1ccc(F)c(Cl)c1)c1cccc(Br)c1	i
28	CCCC(=O)Nc1ccc(NC(=S)NC(=O)c2ccc(OC)cc2)cc1	3%
29	O=[N+]([O-])c1ccc(CSc2n[nH]c(-c3ccco3)n2)cc1	6%
30	CCOc1ccc(NC(=O)CCSc2nnc(-c3ccccc3C)n2C)cc1	i

# Random excerpt: 3 records from the list.
no.	mol	Mtb growth
20	O=[N+]([O-])c1ncn(Cc2ccc(F)cc2Cl)n1	6.9µg/mL*
7	COc1ccc(N2CCN(C(=S)Nc3ccc(OC)cc3OC)CC2)cc1	i
13	CC1CN(S(=O)(=O)c2cccc3nsnc23)CC(C)O1 (stereo not given)	i

# Next section
no.	mol	Mtb growth
31	CC1CCc2sc(N3C(=O)C4CC=C(Cl)CC4C3=O)c(C#N)c2C1 (stereo not given)	i
32	CCOc1ccc([N+](=O)[O-])cc1C(=O)O	i
33	Cc1cnc(NC(=O)CSc2nnc(-c3ccc(Cl)cc3Cl)n2C)s1	i
34	O=C(c1ccc(S(=O)(=O)N2CCCC2)cc1)N1CCN(c2cccc(Cl)c2)CC1	i
35	CC1CCN(C(=S)c2cccc(O)c2)CC1	i
36	CC(=O)c1ccc(NC(=O)c2cccc(C)c2[N+](=O)[O-])cc1	i
37	CC(C(=O)Nc1cccc2ccccc12)N1C(=O)C2CC=C(Cl)CC2C1=O (stereo not given)	i
38	CS(=O)(=O)N(CC(=O)Nc1ccccc1C(=O)NCc1ccco1)c1ccc(Cl)cc1	i
39	Cc1ccc(-c2nn(-c3cc(N4CCN(C(=O)c5ccccc5F)CC4)ccc3[N+](=O)[O-])c(=O)c3ccccc23)cc1	i
40	COc1ccc(-c2ccc3c(n2)sc2c(=O)[nH]c(=O)[nH]c23)cc1OC	0%
41	CC(C)C(=O)NCCc1nc2ccccc2n1C(C)c1ccccc1 (stereo not given)	i
42	NS(=O)(=O)c1ccc(NC(=S)NCc2ccccc2Cl)cc1	i
43	Clc1ccc(-n2c(SCc3nc4ccccc4[nH]3)nnc2-c2ccncc2)cc1	i
44	Cc1ccc(-c2nnc(-c3ccc(N)cc3)o2)cc1	i
45	COc1cc(-c2nnc(SCC(=O)Nc3ccc(C)cc3)n2-c2ccc(F)cc2)cc(OC)c1OC	i
46	CNc1ccc(SC#N)cc1	?
47	c1ccc(COc2ccc(CNC(c3ccccc3)c3ccccc3)cc2)cc1	i
48	Cc1ccc(S(=O)(=O)N(CC(=O)NCC2CCCO2)Cc2cccc(C)c2)cc1 (stereo not given)	6%
49	N#C/C(=C/c1ccc(OCc2ccc(F)cc2)cc1)C(N)=S	i
50	CCN(CC)C(=O)c1sc(NC(=S)N2CCN(S(C)(=O)=O)CC2)c(C(=O)OC)c1C	3%
51	CCCCNCCCOc1c(Cl)cc(C)cc1Br	i
52	CCOC(=O)CC(=O)CSc1nc(C(F)(F)F)cc(C)c1C#N	i
53	C=CSc1sc(Cl)c(N(CC)CC)c1[N+](=O)[O-]	i
54	COc1ccc(OCC(=O)OC2CCCN(C)C2)cc1 (stereo not given)	i
55	Cc1cc(Cl)ccc1OCC(=O)Nc1ccc(S(=O)(=O)Nc2nccs2)cc1	3%
56	CCOc1ccc(Cl)cc1CNCc1ccc(F)cc1	i
57	COC(=O)COc1ccc2c(=O)c(-c3ccccc3Cl)coc2c1	0.4µg/mL*
58	O=C(Nc1ccc(CN2CCCCC2)cc1)c1cccnc1	i
59	Cc1c(OC(=O)C2CCCCC2)ccc2c1oc(=O)c1ccccc12	1%
60	S=C(Nc1ccccc1)NN(c1ccccc1)c1ccccc1	i

# Among those listed so far, these have a furan ring, fused or not.
no.	mol	Mtb growth
2	Cc1nc(NC(=O)c2ccco2)ccc1Br	i
22	COC(=O)c1ccc(CSc2n[nH]c(-c3ccccc3OC)n2)o1	i
23	O=C(Nc1cccc(Cl)c1)c1ccco1	i
26	Cc1ccc(C(=O)N2CCN(c3cccc(C)c3C)CC2)o1	6%
29	O=[N+]([O-])c1ccc(CSc2n[nH]c(-c3ccco3)n2)cc1	6%
38	CS(=O)(=O)N(CC(=O)Nc1ccccc1C(=O)NCc1ccco1)c1ccc(Cl)cc1	i

# Next entries follow.
no.	mol	Mtb growth
61	CC(C)(C)C(=O)NC(=S)Nc1ccccc1N1CCCC1	i
62	COc1ccc(NC(=O)c2ccc3nc(-c4ccccc4)c(-c4ccccc4)nc3c2)c(OC)c1	i
63	Cc1ccc(C)c(OCC(=O)Nc2nc(-c3ccc([N+](=O)[O-])cc3)cs2)c1C	i
64	CC(C)C(=O)Nc1ccc(NC(=O)C(C)C)c(Cl)c1	0%
65	CC(C)OC(=O)C1(O)c2ccccc2-c2ccccc21	7%
66	Cc1cc(C)c(NC(=O)c2ccccc2CCc2ccccc2)c(Cl)c1	i
67	Cc1cccc(C2(c3cccc(C)c3)CC2C(=O)Nc2ccccc2Cl)c1 (stereo not given)	3%
68	O=C(COc1ccc2c(c1)oc(=O)c1ccccc12)c1ccc(-c2ccccc2)cc1	i
69	COc1cc(NC(=O)C2CCCO2)c(OC)cc1NC(=O)c1ccccc1 (stereo not given)	?
70	N#Cc1c(NC(=O)CON2C(=O)CCC2=O)sc2c1CCCC2	i
71	COc1ccc(C(=O)N(CCC#N)Cc2ccccc2)cc1OC	i
72	O=C(C1=C(O)C(=O)N(c2nc3ccc(F)cc3s2)C1c1cccc(F)c1)c1ccco1 (stereo not given)	i
73	O=S(=O)(NCC1CCCO1)c1ccc(Br)s1 (stereo not given)	1%
74	CCn1c(C(C)Oc2ccccc2)n[nH]c1=S (stereo not given)	i
75	c1ccc(-c2cc3c(ncn4nnnc34)s2)cc1	i
76	Cc1cc(NC(=O)CSc2nc3ccccc3[nH]2)ccc1Br	?
77	C=CCOc1c(CNc2cccc(C(=O)O)c2)cccc1OCC	0%
78	O=C(CSc1ccccn1)N(c1ccccc1)c1ccccc1	i
79	O=[N+]([O-])c1ccc(OCCOc2ccc(S(=O)(=O)N3CCOCC3)cc2)cc1	i
80	COc1ccc(NC(=O)c2cc3ccccc3oc2=O)cc1Cl	i
81	CN(C)S(=O)(=O)N1CCN(c2ccc([N+](=O)[O-])c(N3CCOCC3)c2)CC1	i
82	O=C(NCCN1CCOCC1)c1ccccc1Oc1ccccc1	i
83	Cc1cc(Cl)c(OCCN2CC(C)OC(C)C2)c(Br)c1 (stereo not given)	i
84	O=C(CSc1nnc(-c2ccc(Cl)cc2Cl)o1)Nc1ccc(Br)cc1	i
85	CCOc1ccc(-n2c(SCC(=O)Nc3cc4oc5ccccc5c4cc3OC)nnc2-c2cccnc2)cc1	i
86	CC1CCN(CC(=O)Nc2c(Cl)cc(Cl)cc2Cl)CC1	i
87	Cc1nnc2sc(-c3ccc(NC(=S)NC(=O)c4cccs4)cc3)nn12	i
88	O=C(Nc1ccc(C2=NC(c3ccccc3)=NC3C=CC=CC23)cc1)c1ccc([N+](=O)[O-])cc1 (stereo not given)	i
89	CCOc1c(Cl)cc(C(=O)Nc2ccc(Br)cc2)cc1Cl	3%
90	CC(C)(C)c1nnc(NC(=O)CCC2CCCCC2)s1	i
91	CC(C)C(=O)Nc1ccc(-c2nc3ccccc3c(=O)[nH]2)cc1	i
92	COc1cc(NC(=O)c2ccccc2F)ccc1NC(=O)c1ccco1	16%
93	COc1ccc(NC(=O)COc2ccc(Cl)cc2C)c(OC)c1	i
94	COc1ccc(CC(=O)Nc2ccc(-c3nc4ccccc4o3)cc2)cc1OC	6%
95	CCOCC(=O)Nc1cc(OC)c(NC(=O)c2ccccc2)cc1OC	14%
96	Cc1nc(NC(=O)C23CCC(C)(C(=O)O2)C3(C)C)sc1C (stereo not given)	i
97	CC(C(=O)Nc1sc2c(c1C(=O)NCC1CCCO1)CCC2)N1C(=O)c2ccccc2C1=O (stereo not given)	i
98	COC(=O)c1cc(OC)c(OC)cc1NC(=O)CSc1nc(N)c(C#N)c(-c2ccccc2)c1C#N	i
99	O=C(COc1ccccc1Cl)NCc1ccc(Cl)cc1Cl	26%
100	COc1ccc(NC(=O)Nc2ccccc2F)cc1	i
101	C=CCc1c(O)nc(SCc2ccccc2Cl)[nH]c1=O	1%
102	CCOc1cc(C2Nc3ccccc3NC3=C2C(=O)CCC3)ccc1O (stereo not given)	i
103	CN1CCN(C(=O)CCn2nc(-c3ccccc3)c3ccccc3c2=O)CC1	i
104	O=c1[nH]c(SCc2ccccc2[N+](=O)[O-])nc2ccccc12	i
105	COc1cccc(N2C(=O)c3cccc4c(N5CCCCC5)ccc(c34)C2=O)c1	i
106	Cc1nc(SCC(=O)O)[nH]c(=O)c1Cc1ccccc1	0%
107	O=C(c1cc2ccccc2o1)N1CCCC1	i
108	Fc1ccc(-n2c(Cc3cccs3)n[nH]c2=S)cc1Cl	0%
109	Cc1ccnc(NS(=O)(=O)c2ccc(NC(=O)c3ccc(Br)o3)cc2)n1	i
110	COc1ccc(C2=N/C(=C\N(C)C)C(=O)O2)cc1	i
111	Fc1ccc(C2CC(c3ccccc3)n3ncnc3N2)cc1 (stereo not given)	0%
112	CCN1C(=O)CN(c2ccccc2)C1=S	2%
113	Cc1cc(-c2nc3ncccc3o2)ccc1NC(=O)C(Cl)(Cl)Cl	i
114	CCOC(=O)C(=CNc1ccccc1O)C(=O)OCC	i
115	CCOC(=O)C1=C(C)NC(=S)NC1c1cccc(OC2CCCC2)c1 (stereo not given)	i
116	CN(Cc1ccccc1)C1(O)C(=O)Nc2ccc(Br)cc21 (stereo not given)	3%
117	CCn1c(Cc2ccccc2)nnc1SCC(=O)Nc1ccc(Br)cc1C(C)C	i
118	COc1ccc(Br)cc1CN1CCN(C(=O)c2cccs2)CC1	i
119	CCOc1cc(C)c(C(C)C)cc1S(=O)(=O)N1CCN(C)CC1	i
120	CC(C)c1ccc(C(=O)N2CCN(c3ccc([N+](=O)[O-])c(NCc4cccnc4)c3)CC2)cc1	16%

# (more compounds)
no.	mol	Mtb growth
121	NC(=O)CSc1nc2ccccc2c2nc3ccccc3n12	i
122	COCCCNC(=O)COc1cc(C)c(Cl)c(C)c1	i
123	CCOC(=O)N1CCN(C(=O)N2c3ccccc3Sc3ccccc32)CC1	i
124	COc1cccc(-c2csc(NC(=O)c3ccccc3F)n2)c1	2%
125	CC(NC(=O)CCC(=O)O)c1ccccc1 (stereo not given)	i
126	CCc1cc(=O)oc2cc(OCc3cc(C)cc(C)c3)ccc12	i
127	Cc1ccccc1/C=C/c1nc2ccccc2c(=O)n1-c1ccc2ccccc2c1	i
128	O=C(Nc1ccc2oc(-c3cccnc3)nc2c1)c1c(F)c(F)c(F)c(F)c1F	i
129	COc1ccc(Cl)cc1S(=O)(=O)Nc1ccc(Cl)c(Cl)c1	17%
130	COc1ccc(C(C)=O)cc1CSc1nc2cc(Cl)ccc2o1	i
131	COc1cc(CO)ccc1OCc1ccccc1F	i
132	COc1cc(C)ccc1OCCCOc1cccc(C=O)c1	i
133	COc1ccc(C)cc1NC(=O)C1(c2ccccc2)CCOCC1	i
134	CCOC(=O)c1ccc(NC(=O)CSc2nnc(CSCc3ccc(Cl)c(Cl)c3)n2C)cc1	i
135	COc1ccc(-n2nc3ccc(NC(=O)c4ccccc4C)cc3n2)cc1	i
136	O=c1cc(-c2cccc(Br)c2)oc2ccc(O)cc12	31%
137	CCOC(=O)c1ccc(NC(=O)NCc2ccco2)cc1	5%
138	O=C(CN(c1cccc(Cl)c1)S(=O)(=O)c1ccccc1)NC1CCCCC1	i
139	O=S(=O)(Nc1ccc2c3c(cccc13)CC2)c1cccc2cccnc12	i
140	CCOc1ccc(N2C(=O)/C(=C/c3cccn3-c3ccccc3)C(=O)NC2=S)cc1	i
141	CCCSc1nc(O)cc(=O)n1C	i
142	O=[N+]([O-])c1cc(C2Nc3ccc4ccccc4c3C3C=CCC32)ccc1O (stereo not given)	i
143	CCOc1ccc(C2CC(c3cccc(Cl)c3)n3ncnc3N2)cc1 (stereo not given)	38%
144	Cc1cc(Cl)c(OCCNCCN)c(Br)c1	i

# Compound activity (PubChem BioAssay)
